Source: PubChem (Fisher Drug Discovery Resource Center)
NPYLR7 ag – mosquito NPYLR7 agonism; activation, % at 10 µM; actives 0.15% (n = 270,000); HEK293T NPYLR7/Galpha15, GCaMP6s calcium fluorescence; in the data active = activation above about 40%;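 note: 0% = vehicle and 100% = reference agonist at the receptor; some compounds past the cut are filed as inactive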
NPYLR7 ag max-min – second read-out of NPYLR7 ag, no call of its own (marks repeat the call); activation, %; measured here: Max-Min RFU normalised activation; some inactives read as strong as hits;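 span of the calcium signal over five minutes; 0% = vehicle and 100% = native peptide agonist; compound fluorescence can raise it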
* marks the source's active call; other numbers are inactive results; i = inactive; & = joins results of further samples. These rows are one share of the data, so the mix of outcomes need not match the whole.

SMILES	NPYLR7 ag	NPYLR7 ag max-min
C=C(C)C(C)(O)C#CCN1CCCCC1 (configuration not stated)	6	6
C=CCn1c(=NC(C)=O)sc2cc(OCC)ccc21	6	2
CCCc1cc(=O)n(CC(=O)NCc2ccccc2Cl)c(-n2nc(C)cc2C)n1	-4	-3
COc1ccc(Cl)c2sc(N3CCN(C(C)=O)CC3)nc12	10	4
Cc1ccc(-n2ncc3c(C)nnc(SCC(=O)Nc4ccc5c(c4)OCCO5)c32)cc1C	-4	-11
Cc1c(C(=O)N2CCN(C(=O)Cc3cccs3)CC2)cc(-c2ccccc2)n1-c1ccc(F)cc1F	-10	-5
Cc1ccc(N2CCN(C(=O)C34CC5CC(CC(C5)C3)C4)CC2)cc1Cl	0	3
CCOc1nc(-c2ccc(C)cc2)n(-c2cccc(NC(=O)c3ccc(F)cc3)c2)n1	14	22
CC(=O)c1ccc(F)cc1-c1cc(N)nc2[nH]ccc12	2	0
COc1ncc(-c2c(-c3ccccc3)ncn2CC(C)C)cn1	2	2
O=C(CCn1cnc2ccccc21)N1CC[C@@H](c2ccc(F)cc2)[C@H](O)C1	2	-4
O=S(=O)(CC1CCCCO1)Oc1ccc(Oc2ccccc2)cc1 (configuration not stated)	5	4
O=C1CC(c2nc3ccccc3[nH]2)CN1CCc1ccccc1 (configuration not stated)	2	-1
O=C1OC(c2ccc(C(F)(F)F)cc2)=NC1=Cc1ccc(N2CCCC2)c([N+](=O)[O-])c1	4	1
COc1ccc(-c2cnc(-c3ccc(CNC(=O)c4cc(F)cc(C(F)(F)F)c4)cc3)[nH]2)cc1	4	3
COCCC1(C(=O)NC2CCCC(C(=O)NC3CC3)C2)CCCC1 (configuration not stated)	5	1
CC(C)CNC(=O)CN1CCCC1COc1ccc(Cl)cc1 (configuration not stated)	2	1
CC(c1ccc(S(C)(=O)=O)cc1)N(C)Cc1ncc(Cl)n1C (configuration not stated)	-1	10
CCOC(=O)C1C(=O)C=C(c2ccc(OC)cc2)CC1c1cc(OC)ccc1OC (configuration not stated)	9	12
CCOc1ccc(CN(CC)CC(=O)N2c3ccccc3NC(=O)CC2C)cc1OC (configuration not stated)	1	-4
CCOC(=O)c1ccc(Nc2nnc(-c3cc4c(ccc5ccccc54)oc3=O)s2)cc1	-8	-12
COc1ccc(OC)c(N2CCN(C(=O)Nc3cccc(Cl)c3)C(C)C2=O)c1 (configuration not stated)	-1	4
CO[C@H]1CN(C(=O)C2CCC2)[C@H]2Cc3c(oc4ccccc34)[C@@H]1C2	13	21
c1cncc(-c2nccn2Cc2ccc(-n3cncn3)cc2)c1	30	16
Cn1cc(S(=O)(=O)Oc2ccc(Oc3ccccn3)cc2)c(=O)n(C)c1=O	6	4
COCCNC(=O)[C@@]1(OCc2ccccc2C)CC(OCc2cccc(Cl)c2)[C@@H]2OC(C)(C)O[C@@H]2C1 (some centres not stated)	18	7
Nc1nc2[nH]c(=O)cnc2c(=O)[nH]1	2	-8
Cc1ccsc1CN(C)C(=O)[C@H](N)CC(C)C	2	10
Cc1noc(CN(C)C(C)c2sc(-c3ccccc3)nc2C)n1 (configuration not stated)	5	4
COc1cc(CN(C)C(=O)c2sc(-c3ccccn3)nc2C)ccc1OC(F)F	-4	-8
Cc1ccc(C)c(NC(=O)CN(C)C(=O)CN2C(=O)CSc3ccccc32)c1	-1	23
COc1cccc(-n2c(=O)[nH]c3sc4c(c3c2=O)CCN(C(=O)COCc2ccccc2)C4)c1	14	3
CNC(=O)c1nc(CN2CCC(O)(CN(C)C)C2)no1 (configuration not stated)	3	-1
Cn1ccnc1-c1nccn1CCc1cccc(F)c1	-3	-7
COc1ccc(C(=O)N(CC(=O)Nc2nc(CC(=O)N3CCN(c4ccccc4Cl)CC3)cs2)CC(C)C)cc1	8	15
COCC(C)n1c(C)cc(C(=O)Cn2nc(C)c([N+](=O)[O-])c2C)c1C (configuration not stated)	0	5

In the list so far, these have a Cl atom.
SMILES	NPYLR7 ag	NPYLR7 ag max-min
CCCc1cc(=O)n(CC(=O)NCc2ccccc2Cl)c(-n2nc(C)cc2C)n1	-4	-3
COc1ccc(Cl)c2sc(N3CCN(C(C)=O)CC3)nc12	10	4
Cc1ccc(N2CCN(C(=O)C34CC5CC(CC(C5)C3)C4)CC2)cc1Cl	0	3
CC(C)CNC(=O)CN1CCCC1COc1ccc(Cl)cc1 (configuration not stated)	2	1
CC(c1ccc(S(C)(=O)=O)cc1)N(C)Cc1ncc(Cl)n1C (configuration not stated)	-1	10
COc1ccc(OC)c(N2CCN(C(=O)Nc3cccc(Cl)c3)C(C)C2=O)c1 (configuration not stated)	-1	4
COCCNC(=O)[C@@]1(OCc2ccccc2C)CC(OCc2cccc(Cl)c2)[C@@H]2OC(C)(C)O[C@@H]2C1 (some centres not stated)	18	7
COc1ccc(C(=O)N(CC(=O)Nc2nc(CC(=O)N3CCN(c4ccccc4Cl)CC3)cs2)CC(C)C)cc1	8	15

Following part.
SMILES	NPYLR7 ag	NPYLR7 ag max-min
O=C(CCC1CCCN(C(=O)c2cc(=O)c3ccccc3o2)C1)NCc1ccccc1F (configuration not stated)	-1	-9
O=C(NCc1ncccn1)c1cc2occc2n1CC1CCCCO1 (configuration not stated)	26	16
COCCNc1nc2cc(C(=O)N3CCOC(C(F)(F)F)C3)ccc2n1C (configuration not stated)	0	22
CCCc1c(C(=O)N2CCN(CC)CC2)cnn1-c1cccc(C)c1	36	44
c1cc(-c2ccc(CN3CCCCC3CN3CCOCC3)o2)[nH]n1 (configuration not stated)	-6	-8
CO[C@H]1C(=O)N(Cc2ccccc2)C2(CCN(C(=O)Cc3ccccc3)CC2)[C@@H]1CO	26	28
CCCCN(CC(=O)N(CCc1c[nH]c2ccccc12)Cc1ccc(OC)cc1)C(=O)NCC(=O)OCC	21	26
CC(=O)NCc1ccc(S(=O)(=O)N(C)CCOc2ccc(Cl)cc2)s1	8	4
CN1CC2(CCN(C(=O)c3ccccc3Oc3ccccc3)C2)OC1=O (configuration not stated)	8	5
Cc1cc(O)c2c(c1O)C(=O)C(O)=C(O)C2=O	31	30
CC1(Cc2ccc(C(=O)c3ccccc3)cc2)C(=O)Nc2cc(Cl)ccc21 (configuration not stated)	3	-1
Cc1c(C)c(C)c(S(=O)(=O)N2CCN(c3nc4nccc(-c5ccc(C(C)(C)C)cc5)n4n3)CC2)c(C)c1C	6	2

The final 5 entries of the part before lead into the next.
SMILES	NPYLR7 ag	NPYLR7 ag max-min
CC(=O)NCc1ccc(S(=O)(=O)N(C)CCOc2ccc(Cl)cc2)s1	8	4
CN1CC2(CCN(C(=O)c3ccccc3Oc3ccccc3)C2)OC1=O (configuration not stated)	8	5
Cc1cc(O)c2c(c1O)C(=O)C(O)=C(O)C2=O	31	30
CC1(Cc2ccc(C(=O)c3ccccc3)cc2)C(=O)Nc2cc(Cl)ccc21 (configuration not stated)	3	-1
Cc1c(C)c(C)c(S(=O)(=O)N2CCN(c3nc4nccc(-c5ccc(C(C)(C)C)cc5)n4n3)CC2)c(C)c1C	6	2
Cc1ccc(C(=O)NNC(=O)Cc2ccn(C(C)C)n2)cc1	9	9
CCc1ccc(-c2ccc3nnc(SC)n3n2)cc1	-21	-20
c1ccc(CC2CCN(Cc3cc4n(n3)CCCNC4)C2)cc1 (configuration not stated)	4	-1
Cc1ccc(C(=O)c2c(N)c(C(=O)Nc3ccc(C)c(C)c3)c3ccccn23)cc1	-5	-8
CN1CC2(CCCN(C(=O)Cn3c(=O)oc4ccccc43)CC2)OC1=O (configuration not stated)	8	5
O=C(O)c1ccccc1C1CCN(C(=O)c2cccc3cccnc23)C1 (configuration not stated)	17	14
COc1cc(C=C2N=C(c3ccccc3OC(F)F)OC2=O)cc(OC)c1	1	4
O=C(c1cccc(N2CCNC2=O)c1)N1C[C@H]2C[C@H](O)[C@@H](O)C[C@H]2C1	16	4
Cc1ccc(-c2nc3ccc(C)cn3c2NC(=O)CC(C)(C)C)cc1	-5	1
CCc1[nH]c2c(CNC(=O)CCn3cncn3)cc(F)cc2c1C	7	3
C=CCC1(O)CC(c2ccc(C)cc2)NC(c2ccc(C)cc2)C1C (configuration not stated)	-14	-23
Cn1c(=O)c2cc(NC(=O)c3ccccc3F)cnc2n(C)c1=O	10	11
Cc1c(/C=C/c2ccc(Br)cc2F)n[nH]c(=O)c1C#N	12	10
COCCNC(=O)C(NC(=O)c1ccc(F)cc1)C1CCN(C(=O)c2ccc(C(F)(F)F)cc2)CC1 (configuration not stated)	5	3
C[n+]1ccc(C(=O)Nc2ccccc2)cc1	10	6
COc1cc(C2(c3ccc(O)c(OC)c3)C(=O)Nc3c(C)cc(Br)cc32)ccc1O	-3	-5
CCn1nc(C)c(CNC(=O)C(=O)Nc2c(F)cccc2F)c1C	5	2
Cc1ccc(-n2c(=O)[nH]c3c(C(N)=O)nc(-c4cccs4)nc32)cc1	1	6
O=C(NCCCn1nc(-c2ccncc2)ccc1=O)Nc1ccc(C(F)(F)F)cc1	2	-2
NS(=O)(=O)c1ccc(NC(=O)CCC(=O)O)cc1	-16	-29
COc1ccc(-c2ccc(N3CCC(C(=O)Nc4ccccc4C(N)=O)CC3)nn2)cc1	-9	-14
Cc1cc(F)ccc1CNC1CCN(Cc2ccncc2)CC1	7&6	5&5
O=C1NC(=S)NC(=O)C1=Cc1ccccc1OCCOc1ccccc1	-1	-6
COc1ccc2nc(Cl)c(Cl)nc2c1	2	9
Cc1cccc(C2=NN(C(=O)CN3CCCCC3C)C(c3ccccc3F)C2)c1 (configuration not stated)	-2	1
CNS(=O)(=O)c1cc(C(=O)OCc2ccc(C(C)C)cc2)n(C)c1	4	0
Cc1nnc(-c2ccccc2-c2ccccc2CO)o1	0	3
O=C1CSC(c2ccc(F)cc2)N1c1cc(Cl)ccc1O (configuration not stated)	-6	-13
CC1=NCCN1S(=O)(=O)c1ccc(I)cc1	2	-2
Cc1ccc(Cl)cc1-n1c(SCc2nc(C(=O)NCc3cccc(C(F)(F)F)c3)cs2)nnc1-c1ccco1	0	12
Cc1noc(C2CCCN2Cc2cnc(-c3ccccc3C)s2)n1 (configuration not stated)	-3	-7
O=C(NCc1cccnc1N1CCc2ccccc2C1)c1cccc2c1OCC2	18	4
Cc1cc(C)c(-c2ccc(=O)n(CC(=O)N3CCCC3)n2)cc1C	11	3
CCCNc1nc2c(C)cccn2c(=O)c1C=C1SC(=S)N(CC2CCCO2)C1=O (configuration not stated)	15	20
CCOc1ccc(NC(=O)c2nc(C)n(-c3ccc(Cl)cc3)n2)cc1	8	3
CCN(CC)CCNC(=O)c1cc2c(s1)CSC2	6	5
CCCN(Cc1nccn1C)C(=O)c1cn(-c2ccccc2)nn1	6	-1
Cc1nccn1-c1ccc(NC(=O)C2CCCN(C/C=C/c3ccco3)C2)cc1 (configuration not stated)	-3	-7
CCN(CCN1CCOCC1)C(=O)c1ccc2ccccc2n1	1	-1
Cc1cccc(CN2CCN(Cc3cnc(N4CCCCC4)nc3)CC2)c1	8	5
CC1CCc2c(sc(NC(=O)c3cc4c(s3)CCCCC4)c2C(N)=O)C1 (configuration not stated)	-4	-14
COc1ccccc1-n1cc(-c2ccnc(NCCc3nccs3)n2)cn1	1	-1
CC(=O)N1CCC(CN(C)C(=O)c2cnn(-c3ccccc3F)c2C)C1 (configuration not stated)	1	0
CCOC(C(=O)N=c1sccn1C)(c1ccccc1)c1ccccc1	2	-1
Cc1cccc(-c2nnc(CSCc3ccco3)o2)c1	-1	i
O=C(CCC(=O)N1CCN(c2ccccn2)CC1)Nc1ccccc1	5	-1
CN(CC1COCCO1)C(=O)CC1(c2ccc(-c3ccccc3)cc2)CC(=O)N(C)C1=O (configuration not stated)	6	3
Cc1c(F)cccc1N1C(=O)CSC1c1cccc(NC(=O)Cc2cccs2)c1 (configuration not stated)	8	14
CC1(C)C=C2C(=NN(c3ccccc3)C(=N)C2C#N)CO1 (configuration not stated)	2	2
CC(=O)NCC1=CCCN(Cc2cc(=O)n3c(C)cccc3n2)C1	-4	-5
CCC(N)C1c2cc(OC)c(OC)cc2CCN1Cc1ccc(F)cc1 (configuration not stated)	3	1
S=C(NCc1ccccc1)N1CCn2cccc2C1c1cccnc1 (configuration not stated)	-1	-4
Cc1nnc(SCC(=O)NC(=O)c2cccn2C)s1	-2	-4
Cc1occc1CNC(=O)NC1CCN(C(C)c2ccccc2)CC1 (configuration not stated)	1	0
CC(C)c1nccn1CCCNC(=O)c1ccc(N2[C@@H]3CC[C@H]2CNC3)nc1	22	15
CC(C)c1cc(Oc2ccc3c(c2)OCO3)nc(SCc2ccc(F)cc2F)n1	24	27
Cc1ccc(Cn2c(C)c(C(=O)NCC3CC3)sc2=O)cc1	-10	-7
CC(c1ccccc1)N(C)CC(=O)Nc1ccc(C#N)cc1 (configuration not stated)	13	6
CN(C)CC1CCCN1c1cnc2cc(F)c(F)cc2n1 (configuration not stated)	0	6
O=C(C1CCC1)N(Cc1ccco1)Cc1nccn1Cc1ccccc1Cl	19	22
O=C(Oc1ccc2ccc(=O)oc2c1)c1cccc(Br)c1	2	-1
NC(=O)C12CC3CC(C1)CC(C(N)=O)(C3)C2	-3	-6
